# Six1-Eya2 inh – qHTS Assay for Inhibitors of the Six1/Eya2 Interaction; Homeobox protein SIX1 (Homo sapiens) + Protein phosphatase EYA2 (Homo sapiens), …; AlphaScreen GST-Six1/His-Eya2 binding, biochemical; active compounds read low; control for the full effect not named in the record; activity change, % (no concentration beside the values); 360,000 tested, 0.56% active; AID 651725, 2012; in the data active = activity change below about -65%; inconclusive = about -30% to -65%; inactive = above about -30%; also: % is scaled to controls: 0 for no effect and ±100 for the full control effect
# Target sequence (O00167 whole entry, looked up): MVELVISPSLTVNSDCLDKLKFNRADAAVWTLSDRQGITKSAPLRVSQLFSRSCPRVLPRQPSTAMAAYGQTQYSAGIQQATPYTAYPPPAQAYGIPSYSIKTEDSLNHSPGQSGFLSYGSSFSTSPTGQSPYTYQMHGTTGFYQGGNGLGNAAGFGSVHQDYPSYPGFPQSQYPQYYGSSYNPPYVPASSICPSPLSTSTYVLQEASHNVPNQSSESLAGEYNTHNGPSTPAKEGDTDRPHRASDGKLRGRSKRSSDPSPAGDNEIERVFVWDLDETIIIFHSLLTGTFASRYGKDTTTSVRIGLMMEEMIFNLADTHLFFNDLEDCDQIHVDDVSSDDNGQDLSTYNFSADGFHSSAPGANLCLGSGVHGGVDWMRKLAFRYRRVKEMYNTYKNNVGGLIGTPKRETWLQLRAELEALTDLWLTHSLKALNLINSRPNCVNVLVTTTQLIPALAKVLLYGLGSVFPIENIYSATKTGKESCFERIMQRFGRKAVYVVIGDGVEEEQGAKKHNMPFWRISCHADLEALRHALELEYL
# Target sequence (Q15475 whole entry, looked up): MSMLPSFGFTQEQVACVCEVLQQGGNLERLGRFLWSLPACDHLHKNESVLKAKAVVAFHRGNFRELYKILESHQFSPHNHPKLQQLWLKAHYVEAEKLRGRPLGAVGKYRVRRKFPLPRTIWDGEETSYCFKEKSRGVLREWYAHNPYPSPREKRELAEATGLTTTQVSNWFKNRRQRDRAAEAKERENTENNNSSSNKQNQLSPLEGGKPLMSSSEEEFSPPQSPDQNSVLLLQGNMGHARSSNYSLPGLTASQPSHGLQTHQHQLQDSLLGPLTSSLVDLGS
#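 Homogeneous AlphaScreen proximity assay pairing GST-Six1 with His-tagged Eya2 (added as 5X mix: 250 nM and 500 nM) in 50 mM Tris pH 8.0, 300 mM NaCl, 1 mM TCEP. Glutathione donor and nickel acceptor beads; 1 h, 37 °C, dark.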
# D2 agonist – Beta-Arrestin HTS for Positive Allosteric Modulators of the Human D2 Dopamine Receptor: Agonists; D(2) dopamine receptor (Homo sapiens), P14416; DiscoveRx PathHunter D2 beta-arrestin, luminescence, 90 min; 100% = 57 uM dopamine signal; activation, % (test concentration not listed); 360,000 tested, 0.084% active; AID 624465, 2012; in the data active = activation above about 40%; inconclusive = about 15% to 40%; inactive = below about 15%; also: compound concentration not given in the record; the text of the record calls up to 30% inactive
#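 Agonist mode: compounds alone added to overnight-plated D2 PathHunter cells for 90 min at 37 C, with 57 uM final dopamine (EC100) defining full response. Beta-arrestin recruitment detected by chemiluminescent reagent, read after 1 h at ambient temperature.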
# TRPML1 inh – qHTS for Inhibitors of the Human Mucolipin Transient Receptor Potential 1 (TRPML1). 390,000 tested, 0.02% active. TRPML1-inducible cells, Ca2+ dye fluorescence, FDSS; active compounds read low; inhibition of EC80 agonist-evoked calcium signal. Mucolipin-1 (Homo sapiens), Q9GZU1. activity change, negative = inhibition, % (concentration not given with the values); in the data active means activity change below about -50%; inconclusive means about -30% to -50%; inactive means above about -30%;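 also: stimulus is agonist 54-4 at its EC80 concentration; % is scaled to controls: 0 for no effect and ±100 for the full control effect; the text of the record puts the active cut at -80%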
#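 Calcium fluorescence in TRPML1-DL cells induced overnight with Tet: a 110 s read after compound pin addition, then a 110 s antagonist read after challenge with 54-4 at 4 uM final (EC80).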
# CtBP-E1A blk – qHTS Assay for Inhibitors of the CtBP/E1A Interaction | AlphaScreen GST-E1A/His-CtBP binding, 1536-well; active compounds read low; control for the full effect not named in the record | activity change, % (no concentration beside the values) | 340,000 tested, 0.49% active | AID 651724, 2012; in the data active means activity change below about -65%; inconclusive means about -30% to -65%; inactive means above about -30%; also: % is scaled to controls: 0 for no effect and ±100 for the full control effect
#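 GST-E1A and His-tagged CtBP (125 nM each as 5X stock) were preincubated with pin-transferred compound for 2 h at 37 °C in the dark, then glutathione donor and nickel acceptor beads were added for 1 h before AlphaScreen reading.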
# TRPML1 ag – qHTS for Agonists of the Human Mucolipin Transient Receptor Potential 1 (TRPML1) | TRPML1-expressing cells, Ca2+ dye fluorescence, FDSS; host cell line not named in the record; reference of the full effect not given here | activation, % (no concentration beside the values) | 410,000 tested, 0.12% active | Mucolipin-1 (Homo sapiens), Q9GZU1; in the data active = activation above about 50%; inconclusive = about 30% to 50%; inactive = below about 30%; also: 0% is about no effect; the text of the record puts the active cut at 80%
#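 In this qHTS format, compounds were pin-transferred onto Ca8-dye-loaded TRPML1-DL cells induced with Tet overnight, and intracellular Ca2+ fluorescence was recorded kinetically for 110 s after a 10 s baseline. A subsequent 4uM final 54-4 (EC80) addition followed by a second 110 s read served as the antagonist phase.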
# PINK1 expr mod – A Quantitative High throughput Screen to Identify Chemical Modulators of PINK1 Expression. PINK1 immunofluorescence, high-content cytometry, 24 h. 410,000 tested, 0.2% active. Potency, µM (series often up to 76.6 µM), without a hit: top-dose activation (PINK1 increase), most hits filed as activators. AID 624263, 2012; active = well fitted activation curve with a large enough effect; inconclusive = small, poorly fitted or top-dose-only effect; inactive = flat fitted curve, though single readings scatter; cell line not stated here;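 also: potency is read from the fitted curve at half-maximal effect; % of control where 0% means no effect; nearly all actives have a fitted effect of over 65% in size; a mitochondrial uncoupler was the plate control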
#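 Stable cell line treated 24 h with compounds at 5 concentrations (CCCP controls), then fixed and immunostained for PINK1 plus nuclear and cell stains; PINK1 immunofluorescence quantified by laser-scanning microplate cytometry.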
# An asterisk follows results filed as active; ? = inconclusive; . = no result given; & = joins results of further samples; [ ] = remark or other dose.
SMILES,Six1-Eya2 inh,D2 agonist,TRPML1 inh,CtBP-E1A blk,TRPML1 ag,PINK1 expr mod
CC1C(=O)N(Cc2cn(CCC3OCCO3)nn2)CCS(=O)(=O)N1Cc1ccc(-c2ccc(Cl)c(Cl)c2)cc1 (centres undefined),1,-0.5,19,-5,1.8,16%
CCC(C)N(C(=O)COC(=O)/C=C/c1ccc(O)c(OC)c1)C1CCS(=O)(=O)C1 (centres undefined),9,3.0,-25,-15,0.7,1.6%
Cc1ccc(NC(=O)c2c(C)nc3ccccn23)cc1C,-1,-3.4,-2,-1,-0.4,3.8%
COC(=O)C1[C@H]2SC(C)(C)C(C(=O)OC)N2C(=O)N1Cc1nc2ccccc2s1 (some centres undefined),1,1.4,24,.,0.7,1.0%
O=C(NCCNC(=O)c1ccccn1)c1ccc(-c2ccccc2)cc1,-3,0.9,9,-10,2.4,-0.2%
COc1ccc(CNC(=O)C2CC(c3ccccc3[N+](=O)[O-])=NO2)cc1 (centres undefined),-2,0.8,-17,-20,0.2,-1.4%
CN1CCN(CCNC(=O)Cn2c(=O)c3cccn3c3ccc(F)cc32)CC1,11,-9.3,10,.,-0.5,1.8%
COc1ccccc1S(=O)(=O)Nc1ccc(S(=O)(=O)Nc2nccs2)cc1,3,-3.5,-3,-9,0.7,0.2%
O=C(Cc1ccccc1)N(Cc1cccnc1)c1nc2c(Cl)cccc2s1,.,.,18,.,2.5,0.1%
O=C1c2ccccc2C(=O)N1c1cccc(-c2nc3ccccc3o2)c1,3,0.4,-7,7,0.1,12%
O=C(NC1CCCCC1)C(c1ccc(F)cc1)N(C(=O)Cc1ccsc1)c1ccc(F)cc1 (centres undefined),1,-1.3,-7,4,-0.1,.
CCC(C)(C)NC(=O)Cc1ccc(Cl)cc1,-3,-2.3,0,6,3.0,1.6%
CCOC(=O)Cc1cnc(NC(=O)c2ccccc2)s1,2,2.5,13,0,0.3,18%[38.3 µM]
Cc1ccnc(NCc2ccc(Cl)cc2)c1,-1,-4.0,29,6,1.7,5.0%
CCOC(=O)C1CCN(CCC(=O)Nc2cc(C)ccc2C)CC1,9,-1.3,-13,1,0.0,-1.4%
CCOc1ccc(NC(=O)COc2cccc3cccnc23)cc1S(=O)(=O)N1CCCC1,?,6.7,18,-17,0.2,1.1%
CC(=O)Oc1ccc([C@@H]2COc3c(ccc4c3C=CC(C)(C)O4)C2)c(OC(C)=O)c1,1,11,.,7,.,0.2%
CCCc1cc(=O)oc2cc(OCC(=O)NCCN3CCOCC3)c(Cl)cc12,-7,-2.8,8,3,-0.9,3.4%
CCN(Cc1ccccc1)C(=O)C(C)OC(=O)c1cc(S(=O)(=O)Nc2c(C)n(C)n(-c3ccccc3)c2=O)ccc1C (centres undefined),-7,1.6,4,.,0.0,-0.1%
COc1ccc(C(=O)Nc2cccc(-c3ccc4nncn4n3)c2)cc1OC,-10,-4.9,1,-7,-0.2,14%
Cc1nc2ccc(NC(=O)c3ccc(Cl)c(NC(=O)c4cccs4)c3)cc2s1,0,-8.9,-20,-7,1.3,4.2%
COC(=O)C1=NNCC12CC(=O)N(c1ccc(Br)cc1)C2=O (centres undefined),5,-7.1,-3,0,0.6,2.0%
Cc1ccc(C(=O)N/N=C\c2ccc(-c3ccc(Cl)c(Cl)c3)o2)cn1,-10,8.3,17,-27,0.5,-1.4%
Cc1nnc(NC(=O)C2(c3ccccc3)CCOCC2)s1,9,0.7,-13,-1,-1.0,-0.5%
CC(C)Cc1nc2ccccc2n1CCc1ccccc1,0,-3.2,-1,2,1.6,1.0%
COCOCCn1cc(CN2CCS(=O)(=O)N(Cc3ccc(-c4ccc(Cl)nc4)cc3)C(C)C2=O)nn1 (centres undefined),0,-2.5,.,-4,.,0.8%
CC(CCCC(C)(C)O)NC(=O)c1cc(COc2ccc3ncccc3c2)on1 (centres undefined),-2,-2.7,29,-3,0.0,-0.4%
C[C@H](NC(=O)OCc1ccccc1)C(=O)NNC(=O)[C@H](Cc1ccccc1)NC(=O)OC(C)(C)C,-6,-0.8,1,.,-0.5,0.1%
COc1ccccc1NC(=O)N1C2CCCC1CC(NC(=O)c1ccccc1)C2 (centres undefined),-2,1.2,0,13,0.7,-0.5%
Cc1nc2c(=O)[nH]c(=S)[nH]c2[nH]c1=O,-66*,3.3,12,-18,1.3,6.2%
COc1cccc(C(=O)Nc2nnc(S(=O)(=O)N3CCCc4ccccc43)s2)c1,.,.,-12,.,-0.4,-0.5%
CCOc1ccc2nc(N3CCC(C(=O)NCCCN4CCOCC4)CC3)sc2c1,6,2.1,9,-3,1.3,4.3%
Cc1ccc(OCc2nnc(-c3ccc(Cl)cc3)o2)cc1,44,1.9,5,-8,-0.1,-1.4%
C(=N/n1c2ccccc2c2ccccc21)/c1ccco1,?,-3.9,-27,-22,1.3,18%
CC(C)c1ccc(CNC(=O)C(=O)Nc2nccs2)cc1,-3,-0.1,14,6,0.5,6.1%
CC(=O)c1cccc(NC(=O)Cn2c(=O)oc3cc(S(=O)(=O)N4CCCC4)ccc32)c1,1,-1.2,9&-4,-6,0.6&0.2,7.8%&-4.8%
N#Cc1ccc(-c2ccc(OCC(=O)NN=Cc3ccncc3)cc2)cc1,-5,4.4,-4,0,1.2,?
Cc1ccc(-n2c(SCC(N)=O)nc3c(c2=O)C2(CCCC2)Cc2ccccc2-3)cc1,-13,-5.0,-10,-4,0.9,0.8%
Cc1cc(C)nc(NC(=O)c2ccc(Cl)cc2)n1,3,0.8,8,8,-0.3,3.7%
O=[N+]([O-])c1ccc(N2CCc3ccccc3C2)nc1,0,-5.3,11,.,0.5,-2.0%
COCCCNCCCCSc1ccc(Cl)cc1,1,0.3,19,15,-0.4,-1.6%
CCCSc1nc2c([nH]1)c(=O)n(C)c(=S)n2C,-3,1.5,-1,2,2.6,-1.1%
O=C(c1ccco1)n1c(=S)nc2ccccn21,-2,0.1,10,6,0.3,-3.1%[38.3 µM]
Cc1ccc(Nc2ccc(NCc3ccccc3)nn2)cc1C,-12,-2.9,-13,0,3.7,?
CSCCC(NC(=O)c1ccccc1Cl)C(=O)N(C)Cc1cccs1 (centres undefined),6,-5.4,4,2,0.0,1.5%
O=C(NCCc1ccccc1)C1CC(=O)N(C2CCCCCC2)C1 (centres undefined),7,2.5,-9,8,0.3,2.9%[38.3 µM]
Cc1ccc(C2(C)NC(=O)N(CC(=O)N3CCN(S(=O)(=O)c4ccc(Cl)s4)CC3)C2=O)cc1 (centres undefined),-1,6.1,4,-10,0.2,2.7%
COC(=O)c1cccc(CSc2nc3ccccc3[nH]2)c1,5,5.5,11,.,-1.6,2.4%
C[C@@H](c1ccccc1)N1C[C@@H](COCc2ccccc2)Oc2cc(N3CC[C@H](N(C)C)C3)ccc2S1(=O)=O,-3,.,.,-6,-0.4,-1.2%
CSCC[C@H](NC(=O)NCCC1=CCCCC1)C(=O)O,-19,-1.2,12,-3,-0.3,0.0%

# Next results
SMILES,Six1-Eya2 inh,D2 agonist,TRPML1 inh,CtBP-E1A blk,TRPML1 ag,PINK1 expr mod
COCCn1c(=NC(=O)c2ccc3c(c2)OCCO3)sc2cc(NC(C)=O)ccc21,.,.,7,.,-1.0,0.2%
Cc1nn(-c2ccc(N3CCOCC3)nn2)c(C)c1CCC(=O)N1CCN(C)CC1,0,0.0,34,7,-0.4,0.1%
Cc1ccc(C)c(N2CCN(C(=O)C34CC5CC(C3)CC(n3nnc(C)n3)(C5)C4)CC2)c1,-7,7.1,-13,7,0.8,5.6%
N#Cc1ccccc1N=C1CCCN1Cc1ccccc1,14,1.1,-9,11,-0.3,-0.6%
O=C(NCCN1C(=O)S/C(=C\c2cccnc2)C1=O)C1CC(=O)N(Cc2ccco2)C1 (centres undefined),1,-1.1,-11,-2,1.0,-0.9%
Cc1ccc(OCC(=O)Nc2ccc3nc(SCC(=O)N4CCc5ccccc54)sc3c2)cc1,.,.,18,.,0.1,1.0%

# Structural class: those above with two or more sulfur atoms
SMILES,Six1-Eya2 inh,D2 agonist,TRPML1 inh,CtBP-E1A blk,TRPML1 ag,PINK1 expr mod
COC(=O)C1[C@H]2SC(C)(C)C(C(=O)OC)N2C(=O)N1Cc1nc2ccccc2s1 (some centres undefined),1,1.4,24,.,0.7,1.0%
COc1ccccc1S(=O)(=O)Nc1ccc(S(=O)(=O)Nc2nccs2)cc1,3,-3.5,-3,-9,0.7,0.2%
Cc1nc2ccc(NC(=O)c3ccc(Cl)c(NC(=O)c4cccs4)c3)cc2s1,0,-8.9,-20,-7,1.3,4.2%
COc1cccc(C(=O)Nc2nnc(S(=O)(=O)N3CCCc4ccccc43)s2)c1,.,.,-12,.,-0.4,-0.5%
CCCSc1nc2c([nH]1)c(=O)n(C)c(=S)n2C,-3,1.5,-1,2,2.6,-1.1%
CSCCC(NC(=O)c1ccccc1Cl)C(=O)N(C)Cc1cccs1 (centres undefined),6,-5.4,4,2,0.0,1.5%
Cc1ccc(C2(C)NC(=O)N(CC(=O)N3CCN(S(=O)(=O)c4ccc(Cl)s4)CC3)C2=O)cc1 (centres undefined),-1,6.1,4,-10,0.2,2.7%
Cc1ccc(OCC(=O)Nc2ccc3nc(SCC(=O)N4CCc5ccccc54)sc3c2)cc1,.,.,18,.,0.1,1.0%

# Three entries out of the list above, arranged by the value under Six1-Eya2 inh, falling.
canonical_smiles | Six1-Eya2 inh | D2 agonist | TRPML1 inh | CtBP-E1A blk | PINK1 expr mod
N#Cc1ccccc1N=C1CCCN1Cc1ccccc1 | 14 | 1.1 | -9 | 11 | -0.6%
O=C(NCCN1C(=O)S/C(=C\c2cccnc2)C1=O)C1CC(=O)N(Cc2ccco2)C1 (centres undefined) | 1 | -1.1 | -11 | -2 | -0.9%
Cc1ccc(C)c(N2CCN(C(=O)C34CC5CC(C3)CC(n3nnc(C)n3)(C5)C4)CC2)c1 | -7 | 7.1 | -13 | 7 | 5.6%

# Source: PubChem BioAssay (National Center for Advancing Translational Sciences (NCATS))
